Biofilm kill mix = mixtures killing C. albicans biofilm; C. albicans biofilm persisters + clotrimazole, fluorescence viability; primary screen in compound mixtures of four per well; inhibition, % at 7.6 µM; actives 0.02% (n = 120,000);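 active = inhibition above 30.3% in the primary screen of four-compound pools, then above 30% when the compound was retested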;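 note: compounds exposed to preformed 24 h biofilms for 48 h; the number belongs to the whole pool; some results filed as inactive read as strong as hits; inactives centre near 12; 0% = biofilm with clotrimazole alone and 100% = kill control; retested singly at about 60 µM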
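Incubation: 24 h biofilm formation, then 48 h compound exposure, 37 °C | Material: C. albicans biofilms | Buffer or medium: RPMI/MOPS medium, pH 7.0 | Measured by: 2-h Alamar Blue fluorescence, 535/590 nm excitation/emission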
* = called active by the depositor.

Preview:
SMILES	Biofilm kill mix
Cc1nn(Cc2ccccc2)c(Cl)c1/C=C/C(=O)OCC(=O)N(C)C1CCS(=O)(=O)C1 (centres undefined)	-3.2
O=C(COc1c(Br)cc(Br)c2cccnc12)N1CCCCC1	24.2
Nc1nc(-c2ccc3ccccc3c2)cs1	8.4
O=C(Nc1ccc(S(=O)(=O)Nc2ncccn2)cc1)c1ccc(Br)o1	18.0
CCc1ccc(NC(=O)C2CC(=O)Nc3ncnn32)cc1 (centres undefined)	7.2
COc1ccc(NC(=S)N(CCc2c(C)[nH]c3ccc(C)cc23)Cc2cccs2)cc1	16.9
Cc1onc(-c2ccccc2Cl)c1C(=O)Nc1ccc(S(=O)(=O)Nc2nccs2)cc1	11.9
CCOC(=O)c1sc(-c2ccc(Cl)cc2Cl)nc1O	15.6
COc1ccc2cc(-c3[nH]ncc3CN3CCCCO3)ccc2c1	-4.1
Cn1nnnc1SCC1=C(C(=O)O)N2C(=O)C(NC(=O)Cn3nc(C(F)F)cc3C3CC3)C2SC1 (centres undefined)	22.0
CSc1nc(C)[nH]c(=O)c1C#N	3.3
CC(C)OC(=O)CC(NC(=O)OC(C)(C)C)c1ccccc1 (centres undefined)	6.0
COc1cc(/C=C2/C(=N)N3C=CSC3=NC2=O)ccc1OCCOc1ccc(NC(C)=O)cc1	10.0
CCn1c(O)c(N=Nc2ccc3ccccc3n2)c2ccccc21	19.1
CCOC(=O)CSc1nnc(CSc2nc(N)c3c(C)c(C)sc3n2)n1-c1ccccc1	10.4
Cc1c(-c2cccc(NC(=O)c3cccs3)c2)nc2ncccn12	18.9
Cc1nn(-c2ccccc2)c(Cl)c1/C=N/NC(=O)c1ccccc1NS(=O)(=O)c1cccs1	13.2
CN(C)NC(=O)c1ccc([N+](=O)[O-])s1	16.0
CCOc1ccccc1N/C(=N/c1nc(C)cc(C)n1)NC(=O)Nc1ccc(Cl)c(Cl)c1	14.7
Cc1[nH]c2ccccc2c1/C=N/NS(=O)(=O)c1ccccc1	16.7
CC12CCCCC1N(O)C(=O)C(=O)N2O (centres undefined)	-9.9
Cc1ccc(S(=O)(=O)[N-]c2nc3ccccc3nc2-n2cc[n+](Cc3ccccc3)c2)cc1	-5.8
O=C(O)c1cccc(S(=O)(=O)Nc2ccccc2N2CCOCC2)c1	1.3
O=C(CN1C(=O)c2ccccc2C1=O)NCC(=O)OCC(=O)c1cccc([N+](=O)[O-])c1	16.7
CC(NCc1ccc(F)cc1)C(=O)Nc1cc(S(=O)(=O)N2CCCCC2)ccc1Cl (centres undefined)	20.4
COc1ccc(N2CCN(C(=S)NCc3ccc(C)cc3)CC2)cc1	-2.1
CCO[C@H]1OC(C(=O)NCc2ccccc2)=C[C@@H](c2ccc(Br)cc2)[C@@H]1CCCO	18.0
CCCCN(C)CCC(=O)Nc1ccc(C)cc1	-7.6
O=C(CSc1ccc(-c2ccc(Cl)cc2)nn1)N1CCCc2ccccc21	6.1
O=C(NCc1ccc(N2CCCC2=O)cc1)c1ccc(F)cc1	17.6

All compounds of this part, from the first entry:
SMILES	Biofilm kill mix
Cc1nn(Cc2ccccc2)c(Cl)c1/C=C/C(=O)OCC(=O)N(C)C1CCS(=O)(=O)C1 (centres undefined)	-3.2
O=C(COc1c(Br)cc(Br)c2cccnc12)N1CCCCC1	24.2
Nc1nc(-c2ccc3ccccc3c2)cs1	8.4
O=C(Nc1ccc(S(=O)(=O)Nc2ncccn2)cc1)c1ccc(Br)o1	18.0
CCc1ccc(NC(=O)C2CC(=O)Nc3ncnn32)cc1 (centres undefined)	7.2
COc1ccc(NC(=S)N(CCc2c(C)[nH]c3ccc(C)cc23)Cc2cccs2)cc1	16.9
Cc1onc(-c2ccccc2Cl)c1C(=O)Nc1ccc(S(=O)(=O)Nc2nccs2)cc1	11.9
CCOC(=O)c1sc(-c2ccc(Cl)cc2Cl)nc1O	15.6
COc1ccc2cc(-c3[nH]ncc3CN3CCCCO3)ccc2c1	-4.1
Cn1nnnc1SCC1=C(C(=O)O)N2C(=O)C(NC(=O)Cn3nc(C(F)F)cc3C3CC3)C2SC1 (centres undefined)	22.0
CSc1nc(C)[nH]c(=O)c1C#N	3.3
CC(C)OC(=O)CC(NC(=O)OC(C)(C)C)c1ccccc1 (centres undefined)	6.0
COc1cc(/C=C2/C(=N)N3C=CSC3=NC2=O)ccc1OCCOc1ccc(NC(C)=O)cc1	10.0
CCn1c(O)c(N=Nc2ccc3ccccc3n2)c2ccccc21	19.1
CCOC(=O)CSc1nnc(CSc2nc(N)c3c(C)c(C)sc3n2)n1-c1ccccc1	10.4
Cc1c(-c2cccc(NC(=O)c3cccs3)c2)nc2ncccn12	18.9
Cc1nn(-c2ccccc2)c(Cl)c1/C=N/NC(=O)c1ccccc1NS(=O)(=O)c1cccs1	13.2
CN(C)NC(=O)c1ccc([N+](=O)[O-])s1	16.0
CCOc1ccccc1N/C(=N/c1nc(C)cc(C)n1)NC(=O)Nc1ccc(Cl)c(Cl)c1	14.7
Cc1[nH]c2ccccc2c1/C=N/NS(=O)(=O)c1ccccc1	16.7
CC12CCCCC1N(O)C(=O)C(=O)N2O (centres undefined)	-9.9
Cc1ccc(S(=O)(=O)[N-]c2nc3ccccc3nc2-n2cc[n+](Cc3ccccc3)c2)cc1	-5.8
O=C(O)c1cccc(S(=O)(=O)Nc2ccccc2N2CCOCC2)c1	1.3
O=C(CN1C(=O)c2ccccc2C1=O)NCC(=O)OCC(=O)c1cccc([N+](=O)[O-])c1	16.7
CC(NCc1ccc(F)cc1)C(=O)Nc1cc(S(=O)(=O)N2CCCCC2)ccc1Cl (centres undefined)	20.4
COc1ccc(N2CCN(C(=S)NCc3ccc(C)cc3)CC2)cc1	-2.1
CCO[C@H]1OC(C(=O)NCc2ccccc2)=C[C@@H](c2ccc(Br)cc2)[C@@H]1CCCO	18.0
CCCCN(C)CCC(=O)Nc1ccc(C)cc1	-7.6
O=C(CSc1ccc(-c2ccc(Cl)cc2)nn1)N1CCCc2ccccc21	6.1
O=C(NCc1ccc(N2CCCC2=O)cc1)c1ccc(F)cc1	17.6
O=C(O)c1cccnc1C(=O)N1CCc2c([nH]c3ccccc23)C1C(F)(F)F (centres undefined)	21.6
COc1ccc(C(C)=O)cc1CSc1ncccn1	9.3
CCCn1c(CCC(=O)O)nc2cc(S(=O)(=O)N(CC)CC)ccc21	10.7
CC(C)CN1CCN(Cc2nc3ccccc3s2)CC1CCO (centres undefined)	17.2
O=C1c2ccc([N+](=O)[O-])cc2C(=O)N1c1c[nH]c(=O)[nH]c1=O	-0.3
C/C(=N\NC(=O)C1CC1)c1ccc2c(c1)OCCO2	19.9
O=[N+]([O-])c1ccc(N/N=C/c2ccc[nH]2)cc1	21.6
Cc1nc(-c2ccccc2)sc1C(=O)/C=C/N(C)C	-10.1
Nc1ccc2c(c1)N=[N+]([O-])c1cc(N)ccc1C2	13.1
CCOc1ccc(/C=N/Nc2cc(=O)n(C)c(=O)n2C)cc1	11.4
Cn1c(SCC(N)=O)nnc1-c1cnccn1	6.8
CCOCCCNC(=S)N1CCC(NC(=O)c2ccco2)CC1	9.7
COCCN(C(=O)/C=C/c1ccccc1)c1nnc(-c2cccnc2)s1	10.8
O=C(COc1ccc([N+](=O)[O-])cc1)Nc1ccc(C(=O)Nc2ccccc2C(=O)O)cc1	23.2
COc1ccc(O[C@H]2C=C[C@@H](c3ccccc3)O[C@@H]2COC(=O)CC/C(C)=N/OC[C@@H](O)[C@H]2O[C@@H]3OC(C)(C)O[C@@H]3[C@H]2O)cc1	6.9
CC1CCc2c(sc3nc(SCC(=O)O)n(-c4ccccc4)c(=O)c23)C1 (centres undefined)	7.9
CCn1nc(C)cc1-c1nnc(SCC(=O)Nc2ccccc2)n1CCCOC	2.2
CCC(C)NC(=O)CSc1nc2ccccc2c(=O)n1-c1c(C)n(C)n(-c2ccccc2)c1=O (centres undefined)	14.2
O=C(O)c1ccc2c(c1)ncn2C1CCCC1	10.0
CC1=NN(C(C#N)c2ccccc2C)C(C)(C)C1 (centres undefined)	26.1
O=C(Cc1ccccc1)NCCN1CCCC1	17.2
COc1ccc(/C=C/C(O)=C2/C(=O)NC3(C)CC2c2ccccc2O3)c(OC)c1OC (centres undefined)	5.7
Cn1c(=O)c2c(nc(N/N=C/c3ccc(OC(=O)c4ccco4)cc3)n2Cc2ccccc2)n(C)c1=O	7.2
CCOC(=O)C(NC(=O)Nc1ccc(F)cc1F)(Oc1ccc(F)cc1)C(F)(F)F (centres undefined)	21.2
CC(NC(=O)c1cccs1)c1n[nH]c(=S)n1C (centres undefined)	12.2
CC(NS(=O)(=O)c1cccc(S(=O)(=O)c2ccccc2)c1)C(=O)O (centres undefined)	-2.4
CC1(C)C=C2[C@H]3CC[C@@H]4[C@@]5(C)CCC(=O)C(C)(C)[C@@H]5CC[C@@]4(C)[C@]3(C)CC[C@@]2(C(=O)O)CC1	6.4
O=C(C(=O)c1cccnc1)c1cccnc1	22.8
CCc1nc(C#N)c(N2CCCCC2)o1	7.6
Cc1cc(C)n2nc(C)c(Br)c2n1	9.6
Additional entries follow:
SMILES	Biofilm kill mix
Cc1nc(SCC(=O)NC(=O)NC(C)(C)C)nc(C)c1C	18.9
Cc1ccnc(N(C(=O)Nc2ccccc2)C2=NCC(C)(C)S2)c1	11.1
COc1ccc(CNC(=O)C/C(C)=N/NC(=O)COc2ccccc2)cc1	15.4
CCCn1c(SCC(=O)N2c3ccccc3CC2C)nnc1-c1ccco1 (centres undefined)	10.7
O=C(CCN1CCN(c2ccccc2)CC1)NNC(=O)c1cccc2ccccc12	16.9
Cc1ccsc1/C=C1\SC(=S)N(CC2CCCO2)C1=O (centres undefined)	25.0
O=C(NCc1csc2ccc(Cl)cc12)Nc1ccccc1	19.5
CC(C(=O)NN)c1ccc([N+](=O)[O-])cc1 (centres undefined)	16.2
COc1ccc(S(=O)(=O)NCC(=O)N(CC(=O)NC(C)(C)C)Cc2cccs2)cc1	24.1
NS(=O)(=O)c1ccc(N/N=C/c2ccc(O)c(O)c2O)c([N+](=O)[O-])c1	11.9
Oc1ccc(Cl)cc1/C=C/c1ccc2cccc(O)c2n1	7.6
COc1cc(/C=C2\SC(c3ccccc3)=NC2=O)cc(Cl)c1O	6.1
O=C(Nc1nnc(-c2ccco2)o1)c1ccc(S(=O)(=O)N2CCOCC2)cc1	17.9
Cc1cccc(N/C(N)=N/c2nc(CSc3ccc(Cl)cc3)cc(=O)[nH]2)c1	9.4
CC[C@H]1OC(=O)C[C@@H](O)[C@H](C)[C@@H](O[C@@H]2O[C@H](C)C[C@H](N(C)C)[C@H]2O)[C@@H](CC=O)C[C@@H](C)C(=O)C=C[C@]2(C)O[C@H]2[C@@H]1C	44.5
O=C1N=c2ccccc2=C1c1sc(=S)n(NC(=O)c2ccccc2)c1O	3.1
COC(=O)c1cnc2ccccc2n1	6.2
CN(C)S(=O)(=O)c1ccc(Cl)c(NC(=O)COC(=O)c2cc(-c3ccccc3)nc3ccccc23)c1	9.5
Cc1ccc(NC(=O)c2csc3c2CCCC3)cc1	12.6

Not all compounds are listed; count on the stated rates, not on these rows.
